RE007 growth inh: less growth of the S. pombe RE007 Vpr strain; S. pombe RE007 Vpr strain, BacTiter-Glo ATP luminescence, 24 h; control for the full effect not named in the record; Potency, µM (titrated, usually from 92.2 µM), for inactives: at the top dose activity change, negative = less growth; 360,000 compounds, 0.21% hits; active = well fitted falling curve with a large enough effect; inconclusive = small, poorly fitted or top-dose-only effect; inactive = no such curve, though single readings can be large or run the other way;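 further: on the % scale 0 is the no-effect control and ±100 the full control effect; nearly all actives have a fitted effect of over 50% in size; the assay follows cell death caused by Vpr and the record does not say whether a fall means rescue or toxicity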
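Fission yeast strain RE007, carrying one chromosomally integrated HIV-1 vpr copy, was seeded at OD 0.01 in PMG+AL medium with 23 nL pinned compound. After 24 h at 30 °C and 99% humidity, viability was read by BacTiter-Glo luminescence.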
Cruzain Triton: cruzain (T. cruzi) inhibition with detergent. Potency, µM, for the others: max response, negative = inhibition, usual class: inhibitors. 200,000 compounds, 0.43% hits. purified cruzain, Z-FR-AMC fluorescence, 0.01% Triton. P25779;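 further: plate controls were neutral wells for no effect and buffer without enzyme for full effect; nearly all actives have a fitted effect of over 40% in size; top concentration of the series not given in the record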
Target sequence (P25779 123-467 limits assumed): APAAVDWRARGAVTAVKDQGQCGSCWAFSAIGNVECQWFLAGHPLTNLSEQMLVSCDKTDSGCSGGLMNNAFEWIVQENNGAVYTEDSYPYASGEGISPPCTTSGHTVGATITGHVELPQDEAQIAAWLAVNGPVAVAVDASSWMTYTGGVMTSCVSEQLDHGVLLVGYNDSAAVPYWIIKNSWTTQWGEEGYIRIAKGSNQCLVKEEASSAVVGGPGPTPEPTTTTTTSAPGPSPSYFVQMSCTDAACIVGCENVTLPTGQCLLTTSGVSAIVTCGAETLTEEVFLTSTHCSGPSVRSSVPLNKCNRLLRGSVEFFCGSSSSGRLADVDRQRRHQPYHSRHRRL
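Detergent-containing arm of a paired screen for aggregation-based inhibition: 0.01% Triton X-100 present. Cruzain at 1.5 nM cleaved 2 uM Z-FR-AMC at pH 5.5 with 5 mM DTT; AMC fluorescence gain over 60 s measured activity.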
NS1 function inh: influenza NS1 inhibition; S. cerevisiae slowed by influenza A NS1, growth recovery by OD600; Potency, µM (top dose mostly 46.1 µM), without a hit: top-dose activity, positive = more growth; 270,000 compounds, 0.4% hits; active means well fitted rising curve with a large enough effect; inconclusive means small, poorly fitted or top-dose-only effect; inactive means no such curve, though single readings can be large or run the other way; further: nearly all actives have a fitted effect of over 50% in size
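Recovery from NS1-induced slow growth read by OD600 in budding yeast switched to galactose assay medium (pH 6.0, -URA) at 1:100 dilution. Compound 23 nl per well; the matching strain lacking NS1 serves as control.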
SARS PLpro yeast: inhibitors of SARS-CoV papain-like protease in yeast; 330,000 compounds, 0.19% hits; S. cerevisiae expressing SARS-CoV PLpro, growth rescue; control for the full effect not named in the record; Potency, µM (highest dose often 32.9 µM), for the others: at the highest dose activity, positive = growth rescue; AID 485353; active means well fitted rising curve with a large enough effect; inconclusive means small, poorly fitted or top-dose-only effect; inactive means no such curve, though single readings can be large or run the other way; further: 0% is about no effect; nearly all actives have a fitted effect of over 55% in size; growth read by luminescence after 48 h
StopGo reporter: lowers the luciferase signal of an FMDV 2A StopGo reporter; human cells with a luciferase reporter of 2A StopGo recoding; control for the full effect not named in the record; Potency, µM (highest dose often 57.9 µM), inactives show at the top dose signal change, negative = less light; 410,000 compounds, 1.2% hits; AID 1159524; active = well fitted falling curve with a large enough effect; inconclusive = small, poorly fitted or top-dose-only effect; inactive = no such curve, though single readings can be large or run the other way; tested in HEK293T cells; further: on the % scale 0 is the no-effect control and ±100 the full control effect; nearly all actives have a fitted effect of over 45% in size; luciferase light after 4 h
Lassa entry inh: blocks Lassa virus binding to or entry into cells. Lassa virus pseudotype entry inhibition, cell reporter; control for the full effect not named in the record. Potency, µM (series often up to 37.9 µM), inactives show at the top dose activity change, negative = inhibition, most hits filed as inhibitors. 300,000 compounds, 1.2% hits; active means well fitted inhibition curve with a large enough effect; inconclusive means small, poorly fitted or top-dose-only effect, or effect the other way; inactive means flat fitted curve, though single readings scatter; tested in HEK293 cells; further: on the % scale 0 is the no-effect control and ±100 the full control effect; nearly all actives have a fitted effect of over 50% in size; luciferase read-out
Cruzain inh noDet: blocks cruzain activity in detergent-free assay; Potency, µM, without a hit: max response, negative = inhibition, most hits filed as inhibitors; AID 1476; 200,000 compounds, 2.3% hits; purified cruzain, Z-FR-AMC fluorescence, no detergent;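 further: plate controls were enzyme without inhibitor for no effect and buffer without enzyme for full effect; nearly all actives have a fitted effect of over 40% in size; top concentration of the series not given in the record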
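Detergent-free condition (0.00005% Triton X-100) in acetate buffer pH 5.5 with DTT. 1.5 nM enzyme and compound were pre-mixed 15 min, then 2 uM Z-FR-AMC substrate added; reaction progress from fluorescence change between first and third reads (60 s).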
MARV entry inh: blocks Marburg virus binding to or entry into cells; Marburg virus pseudotyped entry inhibition, cell reporter; control for the full effect not named in the record; about a third of the inactives were read at about 46 µM; Potency, µM (doses to about 37.8 µM), for inactives: top-dose activity change, negative = inhibition, hits mostly inhibitors; 300,000 compounds, 1.8% hits; AID 540276; active = well fitted inhibition curve with a large enough effect; inconclusive = small, poorly fitted or top-dose-only effect, or effect the other way; inactive = flat fitted curve, though single readings scatter; tested in HEK293 cells; about a fifth of its hits are not listed in these tables; further: on the % scale 0 is the no-effect control and ±100 the full control effect; luciferase read-out
The depositor's hits bear a star; ? = inconclusive; / = no result given; & = joins results of further samples; [ ] = dose if it differs, or a comment. Unless noted, the call rests on the fitted dose curve; in most records, active means well fitted curve in the direction sought with a large enough effect; inconclusive means small, poorly fitted or top-dose-only effect, or another doubt; inactive means no such curve, though single readings can be large; an effect the other way counts as inactive or inconclusive. Potency means the concentration at half of the fitted maximal effect. The order is random; about 4.6% have a hit in one of these screens.

item | smiles | RE007 growth inh | Cruzain Triton | NS1 function inh | SARS PLpro yeast | StopGo reporter | Lassa entry inh | Cruzain inh noDet | MARV entry inh
1 | CCCCSC(=S)NC1CCS(=O)(=O)C1 (stereo not drawn) | 1% | -4.3% | -4% | 11% | -27% | 4% | -6% | ?
2 | COc1ccc(OC)c(S(=O)(=O)n2nnc3ccccc32)c1 | 19% | 6.3% | ? | -7% | 15% | 4% | 3% | -7%
3 | Cc1ccc(Cn2c(=N)c(C(=O)NCCN3CCOCC3)cc3c(=O)n4ccccc4nc32)cc1 | 1% | / | -2% | -7% | -13% | / | / | /
4 | CC(C)(CO)NCc1ccc(Br)cc1 | 0% | / | / | -1% | -12% | -6% | / | 0%[14.2 µM]
5 | CC(OC(=O)CCN=C1NS(=O)(=O)c2ccccc21)C(=O)Nc1ccc(F)c(F)c1F (stereo not drawn) | 15% | / | / | 4% | -7% | -9% | / | 11%
6 | COc1ccc(/C=C/C(=O)CCC(=O)O)cc1 | -28% | / | 4% | 1% | 35%[activator] | 19% | / | 5%[46.1 µM]
7 | CCCCN1C(=O)c2ccc(C(=O)OCC(=O)NCCc3ccc(S(N)(=O)=O)cc3)cc2C1=O | -2% | / | / | 1% | -13% | 3% | / | 2%
8 | COCCCNC(=O)c1ccc2c(=O)n(Cc3ccc(Cl)cc3)c(=S)[nH]c2c1 | 4% | / | -3% | -2% | -5% | / | / | /
9 | C/C(=N\NC(=O)C1(C)NC(C)(C)Cc2ccccc21)c1ccccc1 (stereo not drawn) | -2% | / | 3% | -1% | 11% | 10% | / | 22%[46.1 µM]
10 | CCOc1ccc(C(CC(=O)O)NC(=O)c2ccco2)cc1 (stereo not drawn) | 13% | 0.1% | 6% | -16% | 10% | 18% | 0% | -10%
11 | O=C1NC(=O)C2(Cc3ccccc3N3CCCC32)C(=O)N1c1ccc(Cl)cc1 (stereo not drawn) | 17% | -8.6% | 11µM* | 3% | 6% | 1% | 5% | ?
12 | CC(=O)c1ccc(NC(=O)C2CC(=O)Nc3nc4ccccc4n32)cc1 (stereo not drawn) | -8% | / | 3% | 1% | -1% | / | / | /
13 | Cn1c(=O)c2c(nc(Sc3ncnn3CC(=O)NC3CCCCC3)n2C)n(C)c1=O | -12% | / | 3% | 1% | -9% | / | / | /
14 | COc1ccc2[nH]c(C)c(CCNCc3cn(C)c4ccccc34)c2c1 | -14% | / | / | 5% | -10% | ? | / | ?
15 | CCOc1cc2[nH]c(=O)n(CCC(=O)N3CCN(c4ccccc4OC)CC3)c(=O)c2cc1OCC | 4% | -3.0% | 2% | 3% | -28% | -7% | ? | 1%&1%
16 | C=CCc1cccc(CNc2c(C)cc(C)cc2C)c1O | -2% | / | / | 0% | -26% | 14%[46.1 µM] | / | -7%[46.1 µM]
17 | C/C(=N\N1CCN(Cc2ccc(Cl)cc2)CC1)c1ccc([N+](=O)[O-])cc1 | -8% | / | 3% | 1% | ? | -2%[46.1 µM] | / | ?
18 | COC(=O)c1ccc(-n2c(C)cc(C(=O)COC(=O)CC3Sc4ccccc4NC3=O)c2C)cc1 (stereo not drawn) | 32% | -3.9% | 13% | -1% | 0% | ? | 25µM* | ?
19 | COc1cc(NC(=O)Cn2c(=O)cc(C)c3c(C)nn(-c4ccc(C)cc4)c32)cc(OC)c1 | / | -0.6% | / | / | 5% | -20%[46.1 µM] | 7% | /
20 | CCN(CC)S(=O)(=O)c1cccc(C(=O)N[C@H](C(=O)NCc2ccc(Cl)cc2)C(C)C)c1 | 4% | -6.5% | 7% | 10% | ? | 13µM* | -4% | 10µM*
21 | O=C1c2ccccc2C(=O)c2[nH]cnc21 | -12% | / | 2% | 1% | -17% | / | / | /
22 | CCN(CCCNC(=O)CN(C)S(=O)(=O)c1ccc2c(c1)CCC(=O)N2)c1cccc(C)c1 | -16% | -0.4% | -34% | -6% | -28% | -2% | 16% | 17%&17%
23 | CCC(=O)OC1(C(C)=O)CCC2C3CCC4=CC(=O)CCC4(C)C3CCC21C (stereo not drawn) | 41% | / | / | / | -13% | ? | / | ?
24 | CCOc1ccccc1N(C(=O)c1ccco1)C(C(=O)NC1CCCC1)c1cccnc1 (stereo not drawn) | 2% | 1.8% | -3% | 1% | -3% | -18% | -4% | -6%&-6%
25 | O=C(CNS(=O)(=O)c1ccccc1)Nc1ccc2c(c1)OCO2 | -12% | / | / | 10% | 16% | 14%[46.1 µM] | / | ?

The final 4 records of the section above open the next one.
item | smiles | RE007 growth inh | Cruzain Triton | NS1 function inh | SARS PLpro yeast | StopGo reporter | Lassa entry inh | Cruzain inh noDet | MARV entry inh
22 | CCN(CCCNC(=O)CN(C)S(=O)(=O)c1ccc2c(c1)CCC(=O)N2)c1cccc(C)c1 | -16% | -0.4% | -34% | -6% | -28% | -2% | 16% | 17%&17%
23 | CCC(=O)OC1(C(C)=O)CCC2C3CCC4=CC(=O)CCC4(C)C3CCC21C (stereo not drawn) | 41% | / | / | / | -13% | ? | / | ?
24 | CCOc1ccccc1N(C(=O)c1ccco1)C(C(=O)NC1CCCC1)c1cccnc1 (stereo not drawn) | 2% | 1.8% | -3% | 1% | -3% | -18% | -4% | -6%&-6%
25 | O=C(CNS(=O)(=O)c1ccccc1)Nc1ccc2c(c1)OCO2 | -12% | / | / | 10% | 16% | 14%[46.1 µM] | / | ?
26 | c1ccc(CCn2nnnc2CN2CCc3ccccc32)cc1 | 7% | -2.9% | -10% | -4% | -11% | -18% | -12% | 1%[46.1 µM]
27 | CC1(C)Oc2ccc(C(=O)NC3CCCC3)cc2N(CC(=O)NC2CCCC2)C1=O | 9% | 2.7% | -1% | 0% | 11% | -9% | 1% | -25%
28 | CC1CN(C(=O)Nc2ccc(C(=O)NCc3cccc(F)c3)cc2)c2ccccc2S1 (stereo not drawn) | / | -5.6% | / | / | -17% | -27%[46.1 µM] | ? | -12%[46.1 µM]
29 | Cc1c(Cl)cccc1-n1nc(C)c2c(C(=O)NCc3ccccc3)cc(C3CC3)nc21 | / | -0.2% | / | / | -2% | 9%[46.1 µM] | 1% | /
30 | O=[N+]([O-])c1cccc(CN2CCN(S(=O)(=O)Cc3ccccc3)CC2)c1 | 6% | / | 16% | / | -9% | ? | / | ?
31 | CCN(CC(=O)NCc1cccs1)c1ccc(S(=O)(=O)N2CCOCC2)cn1 | 6% | -0.4% | 0% | 1% | 0% | 6% | 0% | 1%
32 | CCCCN(Cc1cc2cc(OC)ccc2[nH]c1=O)C(=O)c1ccccn1 | -8% | -0.4% | 1% | -4% | -27% | -2% | -2% | 1%
33 | N#CCc1ccnc2ccccc12 | -30% | / | / | / | 2% | -1%[46.1 µM] | / | 9%[46.1 µM]
34 | O=c1cc2oc3cc(O)c(O)cc3c(-c3ccccc3[N+](=O)[O-])c-2cc1O | -19% | / | 11% | ? | ? | / | / | /
35 | Cn1cc(S(=O)(=O)N2CCN(c3ccc(F)cc3)CC2)c(=O)n(C)c1=O | -2% | -4.4% | -9% | 0% | -27% | / | -6% | 0%
36 | NC(=O)c1ccc(NC(=O)COc2coc(CN3CCc4ccccc4C3)cc2=O)cc1 | -6% | / | / | 3% | -15% | 12% | / | 17%
37 | COc1cccc(OCC(=O)NC2CCCCC2)c1 | 9% | 5.0% | -3% | 3% | / | 19% | 5% | 0%
38 | Fc1cccc(Cc2noc(CN3CCSCC3)n2)c1 | -5% | / | 0% | -1% | 11% | -4%[46.1 µM] | / | 6%[46.1 µM]
39 | Cc1cc(C(=O)CN2C(=O)NC3(CCCc4ccccc43)C2=O)c(C)n1C (stereo not drawn) | -7% | 2.3% | 5% | -2% | 0% | 6% | 0% | 11%
40 | COc1ccc(S(=O)(=O)N(n2c(C)nnc2-n2nc(C)cc2C)S(=O)(=O)c2ccc(OC)cc2)cc1 | 2% | -1.1% | 1% | 19% | 21% | 13% | -1% | 13%
41 | Cc1ccccc1CN(C)CCS(=O)(=O)c1cc(Cl)ccc1Cl | -10% | / | -97% | -62% | -16% | 14%[46.1 µM] | / | -25%[46.1 µM]
42 | CCc1[nH]c(=O)c(C#N)c2c1COC(C)(C)C2 | 8% | 2.7% | -5% | ? | -24% | 7% | 4% | -1%
43 | CNC(=S)N/N=C/c1cc(Br)cc(Br)c1O | -20% | -7.0% | -6% | -38% | -23% | -4% | 6% | ?
44 | O=C(Cc1ncc(C(F)(F)F)cc1Cl)NCCc1ccccn1 | 26% | / | / | -1% | -4% | -13% | / | 1%[46.1 µM]
45 | COc1ccc(C(=O)NCCCCNC(=O)c2ccc(OC)c(OC)c2)cc1OC | 15% | / | -4% | -2% | 6% | / | / | /
46 | Cc1cc(C(=O)Nc2c(C)nc3ccccn3c2=O)ccc1[N+](=O)[O-] | / | -2.0% | / | / | -11% | 10%[46.1 µM] | -5% | /
47 | COc1cccc(Oc2c(C)oc3c(CN4CCCCC4)c(O)ccc3c2=O)c1 | -11% | / | -4% | -1% | -1% | / | / | /
48 | Cn1cnc([N+](=O)[O-])c1S(=O)(=O)Oc1cccc2ccccc12 | -7% | / | / | / | 22µM* | ? | / | ?
49 | COCCNC(=O)c1cn(C)c2ccc(S(=O)(=O)N3CCCC3)cc2c1=O | -2% | / | 15% | -1% | -12% | / | / | /
50 | O=[N+]([O-])c1ccc(-n2nnnc2CN2CCCCC2)cc1 | 3% | / | -3% | 1% | -3% | 12%[46.1 µM] | / | 2%[46.1 µM]
51 | CCCC(=O)C1=C(O)C(C(=O)OC)C(C)(C)CC1=NCc1ccccc1 (stereo not drawn) | 5% | / | 10% | -1% | 15% | 3% | / | -2%
52 | Cc1cccc(-n2ncc3c2CCCC3NC(=O)CCc2ccncc2)c1C (stereo not drawn) | -9% | / | 6% | 3% | ? | / | / | /
53 | CCNC(=S)NC(=NCc1cccnc1)Nc1nc(C)cc(C)n1 | -21% | / | -12% | -5% | 14% | / | / | /
54 | CC(C)c1ccc(C=NNc2ccc([N+](=O)[O-])cn2)cc1 | -7% | / | / | / | 19% | -29%[46.1 µM] | / | ?

Source: PubChem
